Compound activity deposited in PubChem by ICCB-Longwood Screening Facility, Harvard Medical School.
KSHV LANA nucl – inhibitors of KSHV LANA binding to nucleosomes; FITC-LANA1-23 / chicken nucleosome fluorescence polarization; stronger effect = lower value; z-score (concentration not given with the values); 51,000 compounds, 0.3% hits; AID 720717;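 active means both repeat wells score below -2 in polarization z-score versus plate sample wells, excluding overly bright wells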;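 further: 100 nL library stock added to about 30 µL; numbers are from one replicate; some results filed as inactive read as strong as hits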
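Test system: purified chicken nucleosomes with FITC-labelled LANA N-terminal peptide (1-23); Input: 240 nM purified chicken nucleosomes (480 nM peptide binding sites), final; Medium: TEN-BT buffer, pH 7.5; Timing: 10–45 min, room temperature; Technique: fluorescence polarization, 480 nm excitation, 535 nm parallel and perpendicular emission; Replication: duplicates.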
BasE inh – inhibitors of Acinetobacter baumannii siderophore enzyme BasE | purified BasE, fluorescence polarization binding displacement | AID 485350 | 84,000 compounds, 0.1% hits | inhibition, % (no concentration beside the values);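 active means both replicates above 25% with normal brightness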;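 further: 0% = negative plate control signal and 100% = positive plate control signal; stock transfer was 100 nL into about 30 µL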
Starred values were filed as active, the others as inactive; & = joins results of further samples.

SMILES	KSHV LANA nucl	BasE inh
CC[C@@H]1C(=O)OC[C@@H]1Cc1cncn1C	0.593&-0.366&-0.501&0.635	-2.7&-1.1

Not all compounds are listed; the hit share may differ from the screen's.
